Assay outcomes (PubChem BioAssay)
Menin MLL FP FL – qHTS Assay for Inhibitors Targeting the Menin-MLL Interaction in MLL Related Leukemias: Competition With Fluorescein Labeled MLL-derived Peptide; Fluorescence polarization, fluorescein-MLL peptide displacement from menin; 290,000 tested, under 10 active; FP activity change, % at 61.4 µM; inconclusive = falling polarisation curve, or a change in total fluorescence; inactive = total fluorescence flat and polarisation flat or rising; no compound was filed as active; the % refers to the polarisation; negative = inhibition;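 note: % of control where 0% means no effect; inhibitors lower the polarisation; unlabelled MLL peptide was the positive control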
Sfp inh – qHTS Assay for Inhibitors of Bacillus subtilis Sfp phosphopantetheinyl transferase (PPTase); 4'-phosphopantetheinyl transferase ffp (Bacillus subtilis), Q9F4F7; Biochemical Sfp PPTase activity, qHTS; Potency, µM, for the others: max response, negative = inhibition, hits mostly inhibitors; actives 3.5% (n = 310,000); AID 1490, 2009; active = well fitted inhibition curve with a large enough effect; inconclusive = small, poorly fitted or top-dose-only effect, or another doubt; inactive = no such curve, though single readings can be large or run the other way;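 note: the enzyme is Sfp with the accession as filed and its product quenches rhodamine fluorescence; potency is the fitted concentration of half-maximal effect; 0% = enzyme reaction without inhibitor and -100% = no enzyme wells; top concentration of the series not given in the record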
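Fluorescence-quenching assay with 15 nM Sfp, 5 uM rhodamine-CoA and 12.5 uM BHQ-2-labelled ybbR peptide in pH 7.6 Hepes/MgCl2 buffer. Enzyme was pre-incubated with compound for 15 min at room temperature. Rate was taken from the 30-min fluorescence change (525/598 nm).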
gsp agonist – qHTS for Agonist of gsp, the Etiologic Mutation Responsible for Fibrous Dysplasia/McCune-Albright Syndrome: qHTS | gsp mutant cells, cAMP HTRF, 30 min; control for the full effect not named in the record | Potency, µM (titrated, usually from 76.9 µM), without a hit: at the top dose activation (cAMP increase), hits mostly activators | actives 0.13% (n = 340,000) | AID 624287, 2012; active = well fitted activation curve with a large enough effect; inconclusive = small, poorly fitted or top-dose-only effect, or another doubt; inactive = no such curve, though single readings can be large or run the other way; cell line not stated here;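 note: phosphodiesterase inhibitor Ro 20-1724 added with compounds to block cAMP breakdown; potency is the fitted concentration of half-maximal effect; nearly all actives have a fitted effect of over 60% in size; about a fifth of the inactives were tested at one dose only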
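Cells in DMEM/10% FBS with G418 were pretreated with compounds in DMSO plus […] (300 uM stock) for 30 min at 37C. cAMP was measured by HTRF (cAMP-d2 plus anti-cAMP antibody-K) after 30 min at room temperature.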
ClpP mod – qHTS Assay for Activators of ClpP | actives 1.9% (n = 340,000) | purified B. subtilis ClpP, FRET peptide cleavage, 20 min | ATP-dependent Clp protease proteolytic subunit (Bacillus subtilis (strain 168)), P80244 | Potency, µM (titrated, usually from 57.5 µM), for inactives: top-dose activity change, negative = active; active = well fitted falling curve with a large enough effect; inconclusive = small, poorly fitted or top-dose-only effect; inactive = no such curve, though single readings can be large or run the other way; note: potency is the fitted concentration of half-maximal effect; the source files actives as falling curves though it sought activators and does not explain the sign; nearly all actives have a fitted effect of over 65% in size; many hits overshoot -100%
Target sequence (P80244 whole entry, looked up): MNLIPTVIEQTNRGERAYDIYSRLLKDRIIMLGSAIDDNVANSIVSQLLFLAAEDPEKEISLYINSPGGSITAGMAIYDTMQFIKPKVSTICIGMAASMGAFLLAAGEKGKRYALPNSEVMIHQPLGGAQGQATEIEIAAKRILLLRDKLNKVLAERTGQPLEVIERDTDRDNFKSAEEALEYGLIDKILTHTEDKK
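Purified B. subtilis ClpP, 10 microg/mL final in Tris/HCl pH8 with KCl, BSA, glycerol and Tween-20, cleaved an Abz/nitrotyrosine-quenched decapeptide. Fluorescence (ex 320, em 430) was read at 0 and 20 min at room temperature. Delta was normalized to 5.8 microM ADEP and DMSO/no-enzyme controls.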
D2 ag – Beta-Arrestin HTS for Positive Allosteric Modulators of the Human D2 Dopamine Receptor: Agonists. D(2) dopamine receptor (Homo sapiens), P14416. DiscoveRx PathHunter D2 beta-arrestin, luminescence, 90 min; 100% = 57 uM dopamine signal. activation, % (concentration not given with the values). actives 0.084% (n = 360,000). AID 624465, 2012; in the data active = activation above about 40%; inconclusive = about 15% to 40%; inactive = below about 15%; note: compound concentration not given in the record; the text of the record calls up to 30% inactive
Target sequence (P14416 whole entry, looked up): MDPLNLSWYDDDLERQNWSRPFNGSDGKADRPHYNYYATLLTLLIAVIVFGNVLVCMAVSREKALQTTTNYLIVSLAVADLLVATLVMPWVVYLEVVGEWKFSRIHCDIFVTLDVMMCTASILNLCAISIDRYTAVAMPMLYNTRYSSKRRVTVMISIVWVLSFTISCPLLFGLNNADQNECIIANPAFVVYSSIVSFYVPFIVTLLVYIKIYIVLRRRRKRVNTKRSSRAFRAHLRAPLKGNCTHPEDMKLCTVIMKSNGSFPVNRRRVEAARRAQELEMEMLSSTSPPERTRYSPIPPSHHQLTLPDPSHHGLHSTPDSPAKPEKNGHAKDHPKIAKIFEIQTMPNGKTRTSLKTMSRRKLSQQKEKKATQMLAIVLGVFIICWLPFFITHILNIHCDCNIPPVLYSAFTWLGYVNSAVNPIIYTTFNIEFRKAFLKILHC
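Agonist mode: compounds alone added to overnight-plated D2 PathHunter cells for 90 min at 37 C, with 57 uM final dopamine (EC100) defining full response. Beta-arrestin recruitment detected by chemiluminescent reagent, read after 1 h at ambient temperature.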
gsp antag – qHTS for Antagonists of gsp, the Etiologic Mutation Responsible for Fibrous Dysplasia/McCune-Albright Syndrome: qHTS; Potency, µM (series often up to 76.9 µM), inactives show at the highest dose activity change, negative = inhibition, usual class: inhibitors; AID 624288, 2012; actives 0.4% (n = 340,000); gsp-mutant cells, cAMP HTRF, 30 min; control for the full effect not named in the record; active = falling curve of any shape with a large fitted effect; inconclusive = falling curve, mostly with a smaller effect; inactive = flat or rising curve; cell line not stated here;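 note: intracellular cAMP measured with PDE inhibitor Ro 20-1724 present during compound exposure; potency is the fitted concentration of half-maximal effect; % is set by controls: 0 for no effect and ±100 for the full control effect; nearly all actives have a fitted effect of over 65% in size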
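HTRF cAMP measurement after 30 min RT detection following 30 min, 37C compound treatment alongside […] (added as 300 uM solution) in G418-selected cells seeded at 2000/well and grown 16–24 h.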
PINK1 expr mod – A Quantitative High throughput Screen to Identify Chemical Modulators of PINK1 Expression; PINK1 immunofluorescence, high-content cytometry, 24 h; Potency, µM (highest dose often 76.6 µM), inactives show top-dose activation (PINK1 increase), hits mostly activators; actives 0.2% (n = 410,000); active = well fitted activation curve with a large enough effect; inconclusive = small, poorly fitted or top-dose-only effect; inactive = flat fitted curve, though single readings scatter; cell line not stated here;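 note: potency is the fitted concentration of half-maximal effect; % of control where 0% means no effect; nearly all actives have a fitted effect of over 65% in size; a mitochondrial uncoupler was the plate control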
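A stable cell line was treated with compounds at 5 concentrations for 24 hours, with CCCP as control. PINK1 levels and mitochondrial localization were measured by immunofluorescence with mitochondrial, cell and nuclear markers after fixation, read by laser-scanning cytometry.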
An asterisk follows results filed as active; ? = inconclusive; / = no result given; & = joins results of further samples; [ ] = remark or other dose.

SMILES	Menin MLL FP FL	Sfp inh	gsp agonist	ClpP mod	D2 ag	gsp antag	PINK1 expr mod
CC(Sc1nnc(C2CC2)n1C1CC1)C(=O)NCc1cccs1 (stereo unspecified)	/	/	24%	-0.3%	0.0	13%	-3.3%
COc1cccc(C(=O)Nc2ccc(C(=O)NCC3CCCO3)cc2)c1 (stereo unspecified)	/	/	2%	/	1.4	-3%	-1.8%
COc1ccc(/C(O)=C/Sc2nnc(Cc3ccccc3)o2)cc1	0.9	6%	-83%[inhibitor]	-2.4%	0.8	-12%	1.2%
CCc1nnc(NC(=O)CSc2nnc(-c3cc4ccccc4cc3O)n2CCOC)s1	0.0	2%	2%	-5.2%	-2.4	?	2.6%
Cc1cccc2sc(NC(=O)C3CCCN(S(=O)(=O)c4cccc5nonc45)C3)nc12 (stereo unspecified)	12	16%	-35%[inhibitor]	0.9%	3.4	-4%	?
COc1ccc(NC2=Nc3ccccc3N3C2=Nc2c(c(C)nn2-c2ccc(C)cc2)C3c2cccnc2)cc1 (stereo unspecified)	?	-15%	-12%	1.5%	0.8	7%	5.7%
CCOc1ccc(S(=O)(=O)NCCC(=O)OCN2C(=O)c3ccccc3C2=O)cc1	-2.7	7%	-14%	0.6%	0.2	4%	-2.1%
O=S(=O)(Nc1ccc(Cc2ccncc2)cc1)c1ccc(Cl)s1	5.3	-1%	3%	-0.8%	0.6	-19%	1.7%
Cc1ccc(C(=O)n2cnc3ccccc32)cc1C	-3.2	0%	-41%[inhibitor]	/	-4.2	-26%	1.9%
COC(=O)c1cc(NCc2c(F)cccc2Cl)ccc1N1CCOCC1	4.1	-26%	23%	0.4%	-2.9	-7%	?
O=C(NC(C(=O)O)c1ccccc1)c1ccc(S(=O)(=O)N2CCOCC2)cc1 (stereo unspecified)	3.9	9%	0%	-1.0%	2.6	-6%	5.1%[38.3 µM]
CC(=O)N1c2c(cc(Br)cc2S(=O)(=O)N2CCN(C(=O)c3ccco3)CC2)CC1C (stereo unspecified)	3.2	22%	3%	0.3%	-1.3	?	0.2%
Cc1nc(NC(=O)C2CCCC2)sc1Cc1ccc2c(c1)OCO2	3.5	-12%	?	/	4.5	-7%	11%
Cc1cc2nc(C)n(CCCNC(=O)Nc3cccc4ccccc34)c2cc1C	3.6	-29%	0%	?	0.6	?	-1.3%
COc1cc(CNn2nnnc2N)ccc1OCC(=O)NC(C)(C)C	2.4	20%	-25%	-1.0%	1.4	8%	0.8%
CCOc1ccc2c(c1)c(N=Nc1cccc(C(=O)O)c1)c(O)n2C	12	-4%	-20%	-1.6%	-3.6	?	0.8%
O=C(Nc1cccc(NC(=O)c2ccccc2Cl)c1)c1ccco1	/	9%	-18%	-0.2%	-0.8	-5%	0.6%
Nc1ccccc1C(=O)N1CCC(O)(c2ccc(Cl)cc2)CC1	-3.4	2%	6%	-4.6%	-2.5	5%	-1.2%
CCN1CCN(C(=S)Nc2ccsc2C(=O)OC)CC1	-1.3	-10%	27%	/	-4.4	-4%	1.6%
O=C(Oc1c(-c2ccccc2)c(=O)n2c3c(cccc13)CC2)c1ccc(Cl)cc1	14	-13%	?	/	1.7	-3%	1.6%
O=C(NC(=S)NNS(=O)(=O)c1ccc(Cl)cc1)c1cccnc1	1.9	17%	-2%[15.4 µM]	/	5.6	4%	-1.6%
Cc1cc(OC(C)C(=O)N/N=C/CC(C)c2ccccc2)ccc1Cl (stereo unspecified)	1.3	31%[activator]	5%	-0.4%	-1.0	-18%	1.2%
O=C(Nc1ccc2c(c1)OCCO2)C1CCCN(c2ncccn2)C1 (stereo unspecified)	5.8	-2%	1%	-0.6%	-3.2	8%	0.4%
Cc1cccc(NC(=O)CSc2nc3nc(C)cc(C)n3n2)c1	2.1	27%	-1%[15.4 µM]	-0.8%	0.4	7%	6.8%
COc1ccccc1NS(=O)(=O)c1cccc(NC(=O)Nc2ccc(Cl)cc2)c1	1.5	19%	17%	/	3.7	28µM*	?
CCOC(=O)c1ccccc1NC(=O)Cc1ccc(S(=O)(=O)N2CCCC2)s1	/	/	-51%[inhibitor]	/	-1.2	-14%	-1.4%
COCC(C)N1CCC(n2nccc2NC(=O)c2ccccc2Cl)CC1 (stereo unspecified)	/	/	9%[15.4 µM]	-4.8%	0.5	5%	1.0%
CC(C)(C)C(C(=O)O)N1CCS(=O)(=O)CC1 (stereo unspecified)	1.9	2%	3%	/	2.7	8%	3.2%
O=C(N/C=C/c1ccccc1)Nc1ccc(Cl)cc1	4.8	-4%	12%	-0.8%	1.0	-3%	3.2%
O=C(CN1CCN(Cc2ccccc2)CC1)N/N=C/C=C/c1ccco1	1.6	22%	7%	-2.7%	0.5	5%	-1.1%
COc1ccc(NC(=O)Cn2c3ccccc3c3nc4n(c(=O)c32)CCS4)cc1	-0.1	1%	1%[15.4 µM]	/	-5.2	-15%	5.8%
O=C(c1ccncc1)N1CCC2(CC1)CCN(C(c1ccccc1)c1ccccc1)CC2	3.2	1%	/	/	/	/	1.5%
COCCNC(=O)CN1c2ccccc2CC1C (stereo unspecified)	5.2	-12%	2%	-1.6%	-4.1	-17%	0.3%
Cc1cccc(NC(=O)CSc2nccn2Cc2ccco2)c1	/	9%	-3%	-1.4%	-1.4	-3%	-0.1%
CCc1ccc(S(=O)(=O)NCCc2cn3ccccc3n2)s1	1.7	14%	-55%[inhibitor]	-19%	-3.7	-7%	0.7%
CC(NC(=O)CCNS(=O)(=O)c1ccccc1)c1ccccc1 (stereo unspecified)	1.5	4%	-29%	-1.8%	3.5	5%	1.0%
CCOC(=O)N1CCC(NC(=O)CSCc2nc(-c3ccc(C)cc3)oc2C)CC1	/	11%	-40%[inhibitor]	-21%	2.7	5%	-1.1%
CCNCc1ccc(OCc2cccs2)c(OCC)c1	0.5	10%	-23%	-3.8%	-6.2	7%	0.9%
CC1C2Cn3c(nc4ccccc43)C1N(C(C)C)O2 (stereo unspecified)	3.4	23%	/	-5.4%	-2.8	5%	3.3%
CCOc1ccc(NC(=O)C2CCCN(S(=O)(=O)c3c(C)nn(C)c3C)C2)cc1 (stereo unspecified)	3.8	1%	-37%[inhibitor]	-1.2%	0.1	3%	1.8%
Cc1ccc2cc3c(nc2c1)N(Cc1ccco1)CC3	0.0	-29%	3%	28µM*	0.4	-10%	6.8%
c1ccc(-n2nnc3ccccc32)cc1	3.9	15%	/	1.1%	3.3	-3%	0.4%
COc1cc(OC)cc(C(=O)Nc2ccccc2C(=O)N2CCCC2)c1	-0.2	14%	-6%	1.5%	-1.5	-18%	-1.3%
COCCCNC(=S)NC(=O)c1ccccc1	6.3	9%	6%	-0.8%	0.8	-14%	4.4%
COc1ccc(CCNc2c([N+](=O)[O-])ncn2C)cc1OC	0.8	17%	-4%	-1.8%	-4.4	2%	3.1%
CCOC(=O)C1CCCN(C(=O)c2ccc(F)c(C)c2)CC1 (stereo unspecified)	/	/	/	-30%	-1.4	/	-0.2%
O=C(CN1CCN(C(=O)C2CCCO2)CC1)Nc1cc(Cl)ccc1Cl (stereo unspecified)	/	12%	?	0.3%	-5.1	-6%	0.9%
CN1CCN(C(=O)c2ccc3c(c2)N(Cc2cccc(Cl)c2)C(=O)c2ccccc2S3(=O)=O)CC1	/	4%	18%	-4.0%&0.3%	-0.5	-13%	1.4%&2.6%
O=C(/C=C/c1ccc(OCCCF)cc1)NCc1cccc(Cl)c1	-2.9	13%	13%	14%	7.2	3%	19%
NC(=O)CN1CCOCCOCCOCCOCCOCC1	3.1	4%	0%	-3.1%	-0.5	4%	-0.5%
C=CCn1c(=O)c2ccccc2n2c(SCC(=O)NCC)nnc12	4.2	6%	-3%	-5.7%	-5.5	-8%	-0.3%
COc1ccccc1OCC(=O)Nc1ccc(C(N)=O)cc1	0.3	6%	15%	-2.1%	-1.5	-1%	-1.7%
CCOC(=O)CSc1ncccn1	-4.9	15%	4%[15.4 µM]	/	-1.8	1%	2.1%
Cc1cc(=O)oc2cc(OC(C)C(=O)N3CCOCC3)ccc12 (stereo unspecified)	-2.8	-13%	-27%	14µM*	-1.6	4%	-5.1%[38.3 µM]
COC(=O)[C@]1(CC(C)C)N[C@H](c2ccc(SC3CCCCC3)c(OC)c2)[C@@H]2C(=O)N(C)C(=O)[C@@H]21	/	/	-35%[inhibitor]	-2.5%	-0.6	-18%	2.9%
COc1cccc(NC(=O)C/C(C)=N/NC(=O)c2ccccc2Cl)c1	-0.4	-4%	-4%	-0.7%	-8.3	-2%	0.5%
CC(=O)N1CCC(N(CCN2CCOCC2)C(=S)Nc2ccc(C)cc2C)CC1	0.1	15%	12%	/	-3.9	9%	3.7%
N#CCCN1CCN(S(=O)(=O)c2ccc(C#N)cc2)CC1	3.5	?	-6%	-2.4%	2.5	-5%	2.6%
NS(=O)(=O)c1ccc(NC(=O)COC(=O)Cc2ccc(Cl)cc2)cc1	4.0	19%	-5%[15.4 µM]	/	-1.6	-3%	-0.3%
CCc1cccc(CC)c1NC(=O)CSc1nnc(C2CC2)n1C	-7.5	14%	26%	/	-2.7	6%	0.4%
CCC1CCCCN1C(=O)c1noc(C(C)C)c1[N+](=O)[O-] (stereo unspecified)	-1.8	23%	-1%[15.4 µM]	-0.6%	0.7	10%	2.1%
